# Compound activity (PubChem)
# StopGo reporter – lowers the luciferase signal of an FMDV 2A StopGo reporter; human cells with a luciferase reporter of 2A StopGo recoding; control for the full effect not named in the record; Potency, µM (top dose mostly 57.9 µM), for the others: at the top dose signal change, negative = less light; hit rate 1.2% among 410,000; active = well fitted falling curve with a large enough effect; inconclusive = small, poorly fitted or top-dose-only effect; inactive = no such curve, though single readings can be large or run the other way; tested in HEK293T cells; note: % is set by controls: 0 for no effect and ±100 for the full control effect; nearly all actives have a fitted effect of over 45% in size; luciferase light after 4 h
# Cruzain inh Det – blocks cruzain activity in presence of Triton detergent | Potency, µM, inactives show max response, negative = inhibition, usual class: inhibitors | purified cruzain, Z-FR-AMC fluorescence, 0.01% Triton | hit rate 0.43% among 200,000 | P25779;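 note: plate controls were neutral wells for no effect and buffer without enzyme for full effect; nearly all actives have a fitted effect of over 40% in size; top concentration of the series not given in the record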
# Target sequence (P25779 123-467 limits assumed): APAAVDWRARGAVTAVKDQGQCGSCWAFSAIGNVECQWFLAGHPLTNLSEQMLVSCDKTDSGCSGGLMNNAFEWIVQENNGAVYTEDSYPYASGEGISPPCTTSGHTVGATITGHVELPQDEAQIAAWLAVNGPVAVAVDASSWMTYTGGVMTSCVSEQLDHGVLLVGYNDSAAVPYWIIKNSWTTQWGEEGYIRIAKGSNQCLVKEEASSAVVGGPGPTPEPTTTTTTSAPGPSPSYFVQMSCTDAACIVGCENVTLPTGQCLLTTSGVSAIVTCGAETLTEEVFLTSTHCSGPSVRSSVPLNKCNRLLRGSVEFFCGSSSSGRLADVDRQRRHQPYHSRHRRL
#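 Cruzain (1.5 nM) preincubated 15 min at RT with compound in 100 mM sodium acetate pH 5.5, 5 mM DTT, 0.01% Triton X-100. Reaction started with 2 uM Z-FR-AMC; AMC fluorescence (ex 360/em 450 nm) change over 60 s gave rate.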
# Cruzain noTriton – cruzain (T. cruzi) inhibition without detergent. P25779. purified cruzain, Z-FR-AMC fluorescence, no detergent. Potency, µM, for inactives: max response, negative = inhibition, most hits filed as inhibitors. hit rate 2.3% among 200,000;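 note: plate controls were enzyme without inhibitor for no effect and buffer without enzyme for full effect; nearly all actives have a fitted effect of over 40% in size; top concentration of the series not given in the record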
#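 Purified cruzain at 1.5 nM, pre-incubated 15 min with compound at room temperature in 100 mM sodium acetate pH 5.5, 5 mM DTT, 0.00005% Triton X-100. Reaction started with 2 uM Z-FR-AMC; AMC fluorescence increase over 60 s gives rate.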
# RE007 growth inh – less growth of the S. pombe RE007 Vpr strain; hit rate 0.21% among 360,000; S. pombe RE007 Vpr strain, BacTiter-Glo ATP luminescence, 24 h; control for the full effect not named in the record; Potency, µM (highest dose often 92.2 µM), inactives show top-dose activity change, negative = less growth; AID 651644; active = well fitted falling curve with a large enough effect; inconclusive = small, poorly fitted or top-dose-only effect; inactive = no such curve, though single readings can be large or run the other way;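 note: % is set by controls: 0 for no effect and ±100 for the full control effect; nearly all actives have a fitted effect of over 50% in size; the assay follows cell death caused by Vpr and the record does not say whether a fall means rescue or toxicity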
#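 Fission yeast RE007 carrying one integrated HIV-1 vpr copy, seeded at OD 0.01 in PMG+AL medium with 23 nL pinned compound. Grown 24 h at 30 degrees; viability read by BacTiter-Glo luminescence after 5 min.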
# NS1 inh – inhibitors of influenza NS1 protein function. hit rate 0.4% among 270,000. Potency, µM (top dose mostly 46.1 µM), inactives show at the top dose activity, positive = more growth. AID 2326. S. cerevisiae slowed by influenza A NS1, growth recovery by OD600; active means well fitted rising curve with a large enough effect; inconclusive means small, poorly fitted or top-dose-only effect; inactive means no such curve, though single readings can be large or run the other way; note: nearly all actives have a fitted effect of over 50% in size
#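 Read-out: OD600 growth recovery of NS1-expressing budding yeast. Cells grown overnight at 30C in -URA glucose medium, washed, resuspended and diluted 1:100 in 2% galactose assay medium, pH 6.0. Same strain lacking NS1 served as positive control.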
# SARS PLpro yeast – SARS-CoV PLP inhibition in yeast | S. cerevisiae expressing SARS-CoV PLpro, growth rescue; control for the full effect not named in the record | Potency, µM (highest dose often 32.9 µM), for inactives: at the highest dose activity, positive = growth rescue | hit rate 0.19% among 330,000; active means well fitted rising curve with a large enough effect; inconclusive means small, poorly fitted or top-dose-only effect; inactive means no such curve, though single readings can be large or run the other way; note: 0% is about no effect; nearly all actives have a fitted effect of over 55% in size; growth read by luminescence after 48 h
# MARV entry inh – blocks Marburg virus binding to or entry into cells | hit rate 1.8% among 300,000 | Marburg virus pseudotyped entry inhibition, cell reporter; control for the full effect not named in the record; about a third of the inactives were read at about 46 µM | Potency, µM (series often up to 37.8 µM), inactives show top-dose activity change, negative = inhibition, usual class: inhibitors; active = well fitted inhibition curve with a large enough effect; inconclusive = small, poorly fitted or top-dose-only effect, or effect the other way; inactive = flat fitted curve, though single readings scatter; tested in HEK293 cells; about a fifth of its hits are not listed in these tables; note: % is set by controls: 0 for no effect and ±100 for the full control effect; luciferase read-out
# LASV entry inh – blocks Lassa virus binding to or entry into cells; Lassa virus pseudotype entry inhibition, cell reporter; control for the full effect not named in the record; Potency, µM (titrated, usually from 37.9 µM), for inactives: at the top dose activity change, negative = inhibition, actives largely listed as inhibitors; hit rate 1.2% among 300,000; AID 540256; active means well fitted inhibition curve with a large enough effect; inconclusive means small, poorly fitted or top-dose-only effect, or effect the other way; inactive means flat fitted curve, though single readings scatter; tested in HEK293 cells; note: % is set by controls: 0 for no effect and ±100 for the full control effect; nearly all actives have a fitted effect of over 50% in size; luciferase read-out
# * marks the source's active call; other numbers are inactive results; ? = inconclusive; . = no result given; [ ] = remark or other dose. Unless noted, calls come from the whole dose curve; as a rule, active = well fitted curve in the direction sought with a large enough effect; inconclusive = small, poorly fitted or top-dose-only effect, or another doubt; inactive = no such curve, though single readings can be large; an effect the other way counts as inactive or inconclusive. Potency is the fitted concentration of half-maximal effect.
SMILES,StopGo reporter,Cruzain inh Det,Cruzain noTriton,RE007 growth inh,NS1 inh,SARS PLpro yeast,MARV entry inh,LASV entry inh
Oc1ccc(CN2CCc3ccccc3C2)c2cccnc12,-29%,1.1%,6%,?,-37%,.,3.3µM*,2.6µM*
COC(=O)c1ccccc1C(=O)c1ccc2c(c1)NC(=O)CO2,-6%,.,.,18%,5%,0%,18%,9%
CCCOc1ccc(-c2nonc2NC(=O)c2oc3ccc(C)cc3c2C)cc1OCCC,-21%,1.0%,5%,.,.,.,?,15%[46.1 µM]
CC(C)(C)c1cc(/C=N/NC(=O)Cc2nc3ccccc3[nH]2)cc(C(C)(C)C)c1O,-24%,-3.9%,?,-22%,19%,8%,-3%,-2%
Cc1cc(N2CCN(C)CC2)nc2ccc(NC(=S)NCc3cccs3)cc12,26%,.,.,-2%,0%,-1%,?,?
COc1ccc(S(=O)(=O)N(Cc2nc(-c3ccc(Cl)cc3)no2)C2CCCCC2)cc1,8%,-4.7%,-18%,.,.,.,0%[46.1 µM],-27%[46.1 µM]
COC(=O)C(CC(C)C)Oc1ccc2c(C)cc(=O)oc2c1 (stereo not drawn),1%,-4.4%,8%,4%,-13%,-3%,-6%[46.1 µM],9%
CC(C)(C)C(=O)CSc1ncccn1,-15%,.,.,-3%,3%,1%,21%[46.1 µM],?
CC(C)[C@H]1C(=O)O[C@H](C(C)C)C(=O)N(C)[C@@H](C(C)C)C(=O)O[C@H](C(C)C)C(=O)N(C)[C@@H](C(C)C)C(=O)O[C@H](C(C)C)C(=O)N1C,11µM*,.,.,6%,3%,-2%,.,.
Cc1ccc(NC(=O)c2ccc(NS(=O)(=O)c3ccc4[nH]c(=O)[nH]c4c3)cc2)nc1,-1%,.,.,-6%,.,3%,-12%,-3%
COc1ccccc1NC1=NC(c2ccc(Cl)cc2)N=C(N)N1 (stereo not drawn),-18%,-1.1%,-10%,-3%,-8%,6%,-6%,1%
CS(=O)(=O)c1cnc2c(S(=O)(=O)c3ccccc3)cnn2c1N,-1%,.,.,3%,0%,0%,20%[46.1 µM],17%
Cc1cc(C)c2c(-n3cccc3)c(C(=O)NCCc3ccccc3)sc2n1,-18%,-3.8%,12%,.,.,.,1%[46.1 µM],17%[46.1 µM]
OCCN(CCO)CC(O)CN1c2ccccc2Sc2ccccc21 (stereo not drawn),-6%,.,.,-4%,-8%,2%,0%,.
Cc1cc(C)nc(/N=C(\N)Nc2ccc(SC(F)F)cc2)n1,-1%,.,.,7%,-8%,-1%,.,.
NC(=O)C1CCN(C(=O)c2cc(Cl)c3c(c2)OCCO3)CC1,-12%,.,.,-19%,.,2.5µM*,?,1%
COc1ccccc1OCCNC(=O)CN1C(=O)NC2(CCCC2)C1=O,-25%,.,.,14%,.,-3%,-1%,-21%
CCOC(=O)N1CCC(NC(=O)c2ccc3c(=O)n4c(nc3c2)CCCC4)CC1,-10%,1.9%,1%,-6%,?,-4%,17%,20%
COc1ccccc1CNC(=O)C1CCCC1,9%,.,.,37%,3%,-3%,-1%[46.1 µM],18%
CCOC(=O)C1=C(CC)Nc2ccccc2N=C1NC(=O)c1ccc(S(=O)(=O)N2CCOCC2)cc1,21%,.,.,-10%,.,0%,-3%[46.1 µM],-20%
CN1C(=O)/C(=C/c2ccc(N3CCCCCC3)o2)C(=O)NC1=S,18%,-11%,1%,-16%,5%,-2%,?,?
CC(=O)CCc1ccc(OCC(O)CNCCOc2ccc(C)cc2)cc1 (stereo not drawn),-3%,.,.,1%,6%,1%,1%[46.1 µM],.
Cc1n[nH]c(=O)c2c(NC(=O)CSc3nn(-c4ccccc4)c(=S)s3)oc(C)c12,-5%,.,.,-13%,.,-2%,-7%,-3%
COc1ccc(C2CC(=O)C=C(NC3CCCC3)C2)cc1 (stereo not drawn),9%,-0.7%,-14%,1%,15%,-3%,5%,18%
CC1CN(/C(=N\S(=O)(=O)c2ccccc2)c2ccccc2)CC(C)O1 (stereo not drawn),9%,.,.,1%,-1%,-1%,.,.

# Look-ups from the results shown.
# For SARS PLpro yeast, `NC(=O)C1CCN(C(=O)c2cc(Cl)c3c(c2)OCCO3)CC1` has 2.5µM*
# For SARS PLpro yeast, `CC(=O)CCc1ccc(OCC(O)CNCCOc2ccc(C)cc2)cc1` (stereo not drawn) has 1%

# (continued)
SMILES,StopGo reporter,Cruzain inh Det,Cruzain noTriton,RE007 growth inh,NS1 inh,SARS PLpro yeast,MARV entry inh,LASV entry inh
CC(C)CC(=O)Nc1ccc(C(=O)CN2CCN(c3ccc(O)cc3)CC2)cc1,11%,.,.,1%,5%,4%,?,19%[46.1 µM]
CCC1=NN(C(=O)C(=O)Nc2ccc(OC)cc2)C(O)(C(F)(F)F)C1 (stereo not drawn),.,4.7%,11%,-5%,9%,-3%,10%,?
CCC(C)(C)NC(=O)C(c1ccccc1Cl)N(Cc1cccnc1)C(=O)CCC(=O)Nc1cc(C)on1 (stereo not drawn),-16%,.,.,17%,-30%,5%,-6%[46.1 µM],?
Cc1ccc(S(=O)(=O)N(Cc2cc3ccc(C)cc3[nH]c2=O)c2ccccc2)cc1,10%,.,.,-6%,2%,0%,.,.
CSc1ccccc1OCc1cc(C(=O)N2CCc3sccc3C2)no1,18%,.,.,7%,-1%,-3%,.,.
CCn1nc(C)c(/C=N/NC(=O)CSc2ccccn2)c1C,61%[activator],.,.,-2%,-1%,1%,?,26%
CCC(=O)Nc1c2c(nn1-c1ccccc1C)CSC2,.,-1.8%,-22%,-3%,3%,26%,2%,-12%
CCOC(=O)c1csc(NC(=O)Nc2cccc(OC)c2)n1,.,-2.8%,8%,.,-3%,-5%,.,.
CCOC(=O)c1c(-c2cccs2)csc1NC(C)=O,?,-8.3%,-7%,-8%,-10%,-5%,0%,-15%
CCN1C(=S)SC(=O)C1=C1C=C(C)N(CCO)C(C)=C1,.,-24%,-23%,15%,-12%,0%,?,?
COc1cc(/C=C/C(=O)O)cc(S(=O)(=O)Nc2ccccc2C(=O)NCc2ccco2)c1OC,-11%,.,.,3%,.,1%,?,0%[46.1 µM]
O=[N+]([O-])c1ccc(CS(=O)c2ccccc2)cc1 (stereo not drawn),8%,.,.,12%,.,.,?,-19%
COc1ccccc1/C=C/c1nc(C#N)c(NCc2ccccc2)o1,3%,0.9%,-2%,.,.,.,-2%[46.1 µM],-3%[46.1 µM]
O=c1c(CN2CCN(c3ccccn3)CC2)coc2ccccc12,-7%,-3.0%,9%,-14%,12%,12%,37%,1%
O=C(O)CCN1C(=O)/C(=C/c2cn(-c3ccccc3)nc2-c2cccs2)SC1=S,0%,.,.,4%,0%,0%,?,-4%[46.1 µM]
COc1ccc(NC(=O)c2sc3nc(N4CCCC4)c4c(c3c2N)CC(C)(C)OC4)c(OC)c1,-22%,.,.,2%,-10%,15%,.,.
Cc1nn(CC(=O)NC(C)c2ccccc2)c(=O)c2ccccc12 (stereo not drawn),-8%,3.7%,8%,7%,?,9%,11%,-6%
CCCN(CCC)C(=O)C1CCC(CNS(=O)(=O)c2cccc3nsnc23)CC1 (stereo not drawn),-15%,.,.,12%,-17%,1%,.,.
CCN1C(=O)C(NC(C)=O)c2cc(Br)ccc21 (stereo not drawn),-22%,-1.0%,0%,0%,-4%,-8%,3%[46.1 µM],2%
O=C(COc1cccc(OC(F)F)c1)Nc1ccc(SC(F)F)cc1,?,-5.5%,-10%,?,-12%,-1%,-11%,1%
Cc1ccc(NC(=O)c2ccc3c(c2)[nH]c(=O)n3C(C)C)cc1,?,.,.,4%,.,-3%,?,?
O=C(N1CCOCC1)N1CCC(n2nnc3ccccc32)CC1,-17%,2.4%,-10%,11%,4%,10%,3%,0%
Cc1ccc(-c2nc3ccccc3s2)cc1NC(=S)NC(=O)/C=C/c1ccco1,1%,0.0%,16µM*,-3%,6%,11%,?,?
CCOC(=O)C1=C(C)NC(=S)NC1c1ccc(-c2cccc(Cl)c2C)o1 (stereo not drawn),?,-5.5%,?,9%,20%,6%,?,?
Nc1nc(SCc2ccccc2)c2ncn(Cc3ccccc3)c2n1,?,0.4%,-8%,-2%,-7%,.,0%,-19%

# A different layout for part of the listing above:
Molecule	StopGo reporter	Cruzain inh Det	Cruzain noTriton	RE007 growth inh	NS1 inh	SARS PLpro yeast	MARV entry inh	LASV entry inh
CCOC(=O)C1=C(C)NC(=S)NC1c1ccc(-c2cccc(Cl)c2C)o1 (stereo not drawn)	?	-5.5%	?	9%	20%	6%	?	?
Cc1nn(CC(=O)NC(C)c2ccccc2)c(=O)c2ccccc12 (stereo not drawn)	-8%	3.7%	8%	7%	?	9%	11%	-6%
CCOC(=O)c1c(-c2cccs2)csc1NC(C)=O	?	-8.3%	-7%	-8%	-10%	-5%	0%	-15%
Cc1ccc(NC(=O)c2ccc3c(c2)[nH]c(=O)n3C(C)C)cc1	?	.	.	4%	.	-3%	?	?
CCOC(=O)c1csc(NC(=O)Nc2cccc(OC)c2)n1	.	-2.8%	8%	.	-3%	-5%	.	.
CCC(C)(C)NC(=O)C(c1ccccc1Cl)N(Cc1cccnc1)C(=O)CCC(=O)Nc1cc(C)on1 (stereo not drawn)	-16%	.	.	17%	-30%	5%	-6%[46.1 µM]	?

# Structural class: those above with fluorine
SMILES,StopGo reporter,Cruzain inh Det,Cruzain noTriton,RE007 growth inh,NS1 inh,SARS PLpro yeast,MARV entry inh,LASV entry inh
Cc1cc(C)nc(/N=C(\N)Nc2ccc(SC(F)F)cc2)n1,-1%,.,.,7%,-8%,-1%,.,.
CCC1=NN(C(=O)C(=O)Nc2ccc(OC)cc2)C(O)(C(F)(F)F)C1 (stereo not drawn),.,4.7%,11%,-5%,9%,-3%,10%,?
O=C(COc1cccc(OC(F)F)c1)Nc1ccc(SC(F)F)cc1,?,-5.5%,-10%,?,-12%,-1%,-11%,1%
